# GIRK2 act = GIRK2 channel activation; P48051; calls only for hits at 25 µM; 0.05% of 63,000 active; HEK293-GIRK2 thallium flux, Thallos fluorescence;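 active = among the strongest 0.2% of first-round signals and kept after retests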;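 note: first round at about 10 µM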
# Target sequence (P48051 whole entry, looked up): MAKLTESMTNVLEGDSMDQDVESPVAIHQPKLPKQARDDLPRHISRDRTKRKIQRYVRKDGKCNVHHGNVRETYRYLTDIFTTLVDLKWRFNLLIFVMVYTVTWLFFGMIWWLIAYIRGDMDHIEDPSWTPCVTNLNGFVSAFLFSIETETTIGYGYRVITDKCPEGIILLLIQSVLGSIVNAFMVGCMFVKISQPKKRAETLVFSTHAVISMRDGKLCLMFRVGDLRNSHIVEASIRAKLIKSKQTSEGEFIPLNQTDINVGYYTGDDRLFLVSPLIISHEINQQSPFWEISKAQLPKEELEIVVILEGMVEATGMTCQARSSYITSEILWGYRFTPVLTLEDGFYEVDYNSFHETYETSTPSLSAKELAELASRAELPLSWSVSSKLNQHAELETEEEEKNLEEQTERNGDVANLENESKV
# Calls only; i = inactive.
GIRK2 act | smiles
i | CCC1CCCCN1C(=O)c1cnc2nc(C)ccc2c1Nc1cc(OC)c(OC)c(OC)c1 (centres undefined)
i | Cc1sc(NC(=O)C2CC2)c(-c2nc3ccccc3s2)c1C
i | CCOc1ccc(NC(=O)c2ccc(F)c(S(=O)(=O)N3CCN(c4ccccc4)CC3)c2)cc1
i | Cc1ccc(S(=O)(=O)N2CCCc3cc(NS(=O)(=O)c4cccc(C)c4)ccc32)cc1
i | CCC(C(=O)Nc1c(C)cccc1C)n1cc(-c2nc(-c3ccncc3)no2)ccc1=O (centres undefined)
i | CCOC(=O)Cc1csc(NC(=O)C(C)Cn2nc(-c3cccs3)ccc2=O)n1 (centres undefined)
i | Cc1c(C(O)=C2C(=O)C(=O)N(CCCN(C)C)C2c2ccccc2)cnn1-c1ccccc1 (centres undefined)
i | CC(C)CC(=O)NCC(c1ccco1)N1CCOCC1 (centres undefined)
i | O=C(Cn1c(=O)oc2ccccc21)NCCc1csc(-c2ccc(F)cc2)n1
i | Cc1cn2c3c(=O)[nH]c(=O)n(C)c3nc2n1CCN1CCCCCC1
i | CC(C(=O)Nc1cccc(-c2cn3ccsc3n2)c1)n1nc(-c2cccs2)ccc1=O (centres undefined)
i | CCC(C(=O)Nc1ccccc1OC)n1cccc(-c2nc(C3CC3)no2)c1=O (centres undefined)

# The last six records of the section before open the next one.
GIRK2 act | smiles
i | Cc1c(C(O)=C2C(=O)C(=O)N(CCCN(C)C)C2c2ccccc2)cnn1-c1ccccc1 (centres undefined)
i | CC(C)CC(=O)NCC(c1ccco1)N1CCOCC1 (centres undefined)
i | O=C(Cn1c(=O)oc2ccccc21)NCCc1csc(-c2ccc(F)cc2)n1
i | Cc1cn2c3c(=O)[nH]c(=O)n(C)c3nc2n1CCN1CCCCCC1
i | CC(C(=O)Nc1cccc(-c2cn3ccsc3n2)c1)n1nc(-c2cccs2)ccc1=O (centres undefined)
i | CCC(C(=O)Nc1ccccc1OC)n1cccc(-c2nc(C3CC3)no2)c1=O (centres undefined)
i | CCN(C(=O)Cn1c(N2CCCCC2)nc(C)cc1=O)c1ccccc1
i | COc1ccc(-c2nc(N3CCOCC3)c3sc(CN(C)c4ncc(C(=O)NO)cn4)cc3n2)cn1
i | COc1cc(C(=O)NCC(c2cccc3ccccc23)N2CCOCC2)c([N+](=O)[O-])cc1OC (centres undefined)
i | CC(=O)Oc1ccc2c(=O)c(-c3ccc(Cl)cc3)c(C)oc2c1
i | COc1ccc(Cl)cc1NC(=O)c1cc(=O)c(OCc2ccccc2)co1
i | Cc1c(Cl)cccc1NC(=O)Cn1cccc(S(=O)(=O)N2CCCCCC2)c1=O
i | O=C(O)Cc1ccccc1Nc1c(F)cccc1Cl
i | CC(C)c1cc(=O)[nH]c(-n2nc(C3CC3)cc2NC(=O)/C=C\c2ccc3c(c2)OCO3)n1
i | CCCCCC(O)/C=C/[C@H]1C=CC(=O)C1C/C=C\CCCC(=O)O (some centres undefined)
i | O=c1c2scc(-c3ccc(Br)cc3)c2ncn1Cc1cc(=O)n2ccccc2n1
i | COc1ccc(CCNC(=O)c2ccc(Cn3c(C)nc4ccccc43)o2)cc1OC
i | COc1ccc(NC(=O)Nc2cnc(N3CCN(c4ccccc4)CC3)nc2)c(C)c1

# 7 entries from above, ordered by heavy-atom count, ascending:
GIRK2 act | smiles
i | O=C(O)Cc1ccccc1Nc1c(F)cccc1Cl
i | CC(=O)Oc1ccc2c(=O)c(-c3ccc(Cl)cc3)c(C)oc2c1
i | CCCCCC(O)/C=C/[C@H]1C=CC(=O)C1C/C=C\CCCC(=O)O (some centres undefined)
i | CCN(C(=O)Cn1c(N2CCCCC2)nc(C)cc1=O)c1ccccc1
i | O=c1c2scc(-c3ccc(Br)cc3)c2ncn1Cc1cc(=O)n2ccccc2n1
i | COc1cc(C(=O)NCC(c2cccc3ccccc23)N2CCOCC2)c([N+](=O)[O-])cc1OC (centres undefined)
i | COc1ccc(-c2nc(N3CCOCC3)c3sc(CN(C)c4ncc(C(=O)NO)cn4)cc3n2)cn1

# (listing goes on)
GIRK2 act | smiles
i | CSc1ccccc1C(=O)NCCCn1ccnc1-c1ccccc1
i | O=c1ccc(-c2nc(C3CC3)no2)cn1Cc1cc(=O)n2ccccc2n1
i | O=S(=O)(Cc1nc(-c2cccc(Cl)c2)no1)c1ccc(F)cc1
i | O=C(CCn1ccc(=O)[nH]c1=O)N1CCN(S(=O)(=O)C2CC2)CC1
i | Cc1ccc(NCCNC(=O)Nc2ccc(Cl)c(C(F)(F)F)c2)nn1
i | O=C(CCCS(=O)(=O)Cc1ccccc1)Nc1nc2c(s1)CSc1ccccc1-2
i | COc1ccccc1CNC(=O)C(=O)NCC(O)c1ccc(C)o1 (centres undefined)
i | CCOc1cc(=O)c(C(=O)NCc2cc(F)cc(F)c2)nn1-c1ccccc1
i | O=C(NCc1cccs1)c1ccc(Oc2nccnc2N2CCOCC2)cc1
i | O=C(c1cc(C2CC2)n(CC(=O)N(Cc2ccccc2)c2ccccn2)n1)N1CCOCC1
i | CCOc1ccc(NC(=O)NCCNc2cc(-n3cccc3)ncn2)cc1
i | CC(C)NC(=O)CCn1c(=O)c2ccccc2n2c(SCc3ccccc3Cl)nnc12
i | O=C(c1cccc2ccccc12)N1CCC(Cn2ccnc2-c2ccccc2)CC1
i | O=C(c1ccc(=O)[nH]n1)N1CCN(S(=O)(=O)C2CC2)CC1
i | COc1cc(NC(=O)C(c2ccccc2)c2ccccc2)ccc1N1CCCC1=O
i | COC1CCN(C(=O)CC(c2ccccc2)c2ccccc2)CC1
i | COc1ccc(-c2noc(-c3nnn(-c4ccccc4OC)c3N)n2)cc1
i | Clc1ccc(SCc2cn3ccsc3n2)cc1
i | Cc1ccc(Nc2ccccc2Cl)c(CC(=O)O)c1
i | Cn1c(C(F)(F)F)nn(CCNC(=O)C2CCC2)c1=O
i | Cc1c(Cl)cccc1NC(=O)C(=O)NCCc1ccc2c(c1)CCCN2C
i | Cc1c(Cl)cccc1N1CCN(S(=O)(=O)N2CCCCCC2)CC1
i | O=C1c2oc3ccc(Cl)cc3c(=O)c2C(c2ccncc2)N1CCc1ccccc1 (centres undefined)
i | COc1ccc(C2(CNC(=O)CSC3CCCC3)CCCC2)cc1

# Looked up by compound from the list above:
GIRK2 act | smiles
i | CCN(C(=O)Cn1c(N2CCCCC2)nc(C)cc1=O)c1ccccc1
i | Cc1sc(NC(=O)C2CC2)c(-c2nc3ccccc3s2)c1C
i | COc1ccccc1CNC(=O)C(=O)NCC(O)c1ccc(C)o1 (centres undefined)

# Continuation:
GIRK2 act | smiles
i | CN(C)C(=O)c1ccc(S(=O)(=O)NCc2cccs2)o1
i | OC[C@@H]1O[C@@H](Oc2cc(O)c3c(c2)O[C@H](c2ccc(O)c(O)c2)[C@@H](O)C3)[C@H](O)[C@H]1O
i | O=C(c1cccs1)N1CCC(CSC2=NCCS2)CC1
i | COCc1c(C(=O)Nc2ccccc2Cl)nnn1-c1cc(C)cc(C)c1
i | Cc1cc(C)cc(-n2ccn(CC(=O)NCCc3ccccc3)c(=O)c2=O)c1
i | Cn1cnnc1SCCNC(=O)c1cccc(-n2ccc3ccccc32)c1
i | CCSc1nnc(NC(=O)C2CSCCC(=O)N2)s1 (centres undefined)
i | Cn1nc(CNC(=O)C2COc3ccccc3O2)cc1-c1ccco1 (centres undefined)
i | COC(CCCC(C)O)Cc1cc2cc(O)cc(O)c2c(=O)o1 (centres undefined)
i | N#C/C(C(=O)NC1CCCC1)=C1/N=C(NC(=O)c2ccc(Cl)cc2)c2ccccc21
i | Cc1nc(C)c(C(=O)N2CCC(c3nnc(C4CC4)o3)CC2)s1
i | O=S(=O)(c1ccc(Oc2ccccc2Cl)cc1)N1CCCC1
i | O=C(Nc1ccc2c(c1)CN(S(=O)(=O)c1ccccc1)CC2)c1cc(C2CC2)on1
i | Cc1cccc(N2CCCn3c2nc2c3c(=O)n(CCN3CCOCC3)c(=O)n2C)c1
i | O=C(c1cnc2ccccc2n1)N1CCOC(c2ccccc2)C1 (centres undefined)
i | CCOC(=O)c1ccc(CC2S/C(=C(/C#N)C(N)=O)N(c3ccccc3)C2=O)cc1 (centres undefined)
i | COc1ccc(NC(=O)Cn2nc3c(N4CCN(c5ccccc5)CC4)nccn3c2=O)cc1Cl
i | COc1cccc(C2=NN(C(=O)CNCCO)C(c3cn(-c4ccccc4)nc3-c3ccccc3)C2)c1 (centres undefined)
i | CC(O)CN1CCN(C(=O)NCc2ccc(F)cc2)CC1 (centres undefined)
i | COC(=O)N1CCC(CNC(=O)Nc2c(F)cccc2F)CC1
i | O=C(O)c1cnc(NCC2CC2)nc1-c1ccccc1
i | CC(=O)c1ccc(N2CCN(C(=O)CCCn3cccc3)CC2)cc1
i | Cc1ccc(NC(=O)CCc2nc3sc4c(c3c(=O)[nH]2)CCCCC4)cc1Cl
i | COc1ccc(-c2cc(N3CCC(C(=O)NC4CCSC4=O)CC3)ncn2)cc1 (centres undefined)
i | COCCn1c(-c2ccc(Br)cc2)nc2oc3ccccc3c(=O)c2c1=O
i | C#CC(C)(CC)OCC(O)CN1CCC(C(=O)OCC)CC1 (centres undefined)
i | CCOC(=O)c1ccccc1NC(=O)Cn1c(-c2ccc(C)cc2)ncc(C#N)c1=O
i | COC(=O)c1sccc1S(=O)(=O)N(CC(=O)Nc1cccc(C)c1C)c1ccc(C)c(C)c1
i | COCCCN1CN(S(=O)(=O)c2ccc(C)cc2C)c2nc3ccccc3nc21
i | COC(=O)CNC(=O)c1c(S(=O)(=O)Nc2ccc(C)cc2)n[nH]c1C
i | O=C(Nc1ccc2c(c1)OCO2)Nc1ccc2c(c1)C(=O)NCC2
i | Cn1c(=O)c2cc(C(=O)NC3CCSC3=O)n(Cc3ccccc3)c2n(C)c1=O (centres undefined)
i | CCCCCCCCCCCCCCCCCC(=O)NCCS(=O)(=O)O
i | O=C(c1ccco1)N1CCOCC1CO (centres undefined)
i | COc1ccc(C2CCN(C(=O)c3cc(=O)c4ccccc4o3)C2)cc1 (centres undefined)
i | COc1cc(=O)c(C(=O)Nc2cccc(NC(C)=O)c2)nn1-c1cccc(F)c1
i | Cn1nc(C(=O)OC2CN(c3nc4c(C(F)(F)F)cccc4s3)C2)ccc1=O
i | COc1ccccc1N1CCN(c2cc(SCC(=O)Nc3ccc(C(C)=O)cc3)ncn2)CC1
i | O=C(Cn1c(N2CCN(c3ccccc3)CC2)nc2ccccc2c1=O)NCCc1cccs1
i | CCN(CCCNC(=O)CCCCCn1c(=S)[nH]c2cc3c(cc2c1=O)OCO3)c1ccccc1
i | COc1cccc2sc(N3CC(C(=O)Nc4ccccc4F)C3)nc12
i | O=C1CC(NC(=O)c2ccc[nH]c2=O)CN1 (centres undefined)
i | COc1ccccc1N1CCN(c2ccnc(SCC(=O)Nc3cc(Cl)ccc3C)n2)CC1
i | COc1ccc(OC)c(S(=O)(=O)NCCN2CCN(c3ccc(Cl)cc3)CC2)c1
i | CC(Cc1ccco1)NC(=O)c1cc2ccccc2oc1=O (centres undefined)
i | Cc1noc(C)c1S(=O)(=O)N1CCC2(CC1)OCCCO2
i | CCOC(=O)C1CCN(c2nc3ccccc3n3c(=O)n(CC(=O)Nc4ccc(C)cc4)nc23)CC1
i | O=C(Cc1ccccc1Cl)Nc1ccc(-n2nnc(C(=O)NC3CC3)n2)cc1
i | COc1cccc(NC(=O)Nc2ccc(Nc3ccc(-n4ccc(C)n4)nn3)cc2)c1
i | CS(=O)(=O)N1CCCc2cc(NS(=O)(=O)c3ccccc3)ccc21
i | CO[C@@]1(NC(=O)Cc2cccs2)C(=O)N2C(C(=O)O)=C(COC(N)=O)CS[C@@H]21
i | CC(C)(C)c1ccc(OCC(=O)NCCC(O)c2ccccc2)cc1 (centres undefined)
i | Cc1cc(C)n(-c2nc(CCNS(=O)(=O)c3ccc(Br)s3)cs2)n1
i | COc1ccc(C2=NN3C(C2)c2cc(Cl)ccc2OC32CSC(=O)N2)cc1 (centres undefined)
i | COc1cccc(-c2nc(C#N)c(N3CCN(C(=O)c4ccccc4)CC3)o2)c1
i | COc1ccc(OC)c(N2CCCn3c2nc2c3c(=O)[nH]c(=O)n2C)c1
i | Cc1ccc(-c2nnc(CN3CCN(c4ccccc4Cl)CC3)o2)cc1
i | Cc1cccc(Nc2nc(C(=O)N3CCC4(CC3)OCCO4)cs2)n1
i | O=C(CSc1nc2c(oc3ccccc32)c(=O)n1Cc1ccco1)Nc1ccc2c(c1)OCCO2
i | O=C(Cc1ccccc1Cl)NCC1CCN(Cc2ccccc2)CC1

# Shown as labelled records: part of the list above
Cc1cccc(Nc2nc(C(=O)N3CCC4(CC3)OCCO4)cs2)n1
  GIRK2 act: i
O=C(CSc1nc2c(oc3ccccc32)c(=O)n1Cc1ccco1)Nc1ccc2c(c1)OCCO2
  GIRK2 act: i
O=C(Cc1ccccc1Cl)NCC1CCN(Cc2ccccc2)CC1
  GIRK2 act: i

# Next records follow:
GIRK2 act | smiles
i | Cc1cc(C)n(-c2nc3c(c(=O)n(CC(N)=O)c(=O)n3C)n2C(C)C)n1
i | O=C(CN1CCC(c2nc(-c3cccs3)no2)CC1)N1CCN(c2ccccc2)CC1
i | COc1ccc(NC(=O)CCNS(=O)(=O)c2ccc(C)c(N(C)S(C)(=O)=O)c2C)cc1
i | COc1ccc(S(=O)(=O)Nc2cc(OC)cc3cccnc23)cc1
i | CCOC(=O)c1c(NCc2ccc(SC)cc2)c2ccc(Cl)cc2[nH]c1=O
i | CC(C)Sc1ccc(CC(=O)NCCN2CCN(S(C)(=O)=O)CC2)cc1
i | COC(=O)COC(=O)c1cn(-c2cccc(Cl)c2)c(=O)c2ccccc12
i | c1ccc2[nH]c(CSc3ncnc4c3oc3ccccc34)nc2c1
i | COCCNC(=O)Cc1ccc(NC(=O)Nc2ccccc2C)cc1
i | O=C(O)CN=C1SCC(=O)N1c1cccc(O)c1
i | COc1cc(OC)c(NC(=O)Cn2nc3c(Sc4ccc(C)cc4C)nccn3c2=O)cc1Cl
i | COC(=O)c1ccc(NC(=O)COc2cc(C)nc(N3CCCCCC3)n2)cc1
i | COc1ccc(NC(=O)Nc2ccc3c(c2)N(S(=O)(=O)c2ccccc2)CCC3)cc1
i | Cc1cc2oc3c(c(=O)c2cc1Cl)C(c1cccc([N+](=O)[O-])c1)N(CCN(C)C)C3=O (centres undefined)
i | CCOc1ccc2cccc(NC(=O)c3cc(OC)c(OC)c(OC)c3)c2n1
i | Cc1cc(OCC(=O)Nc2ccc(Cl)c(C(F)(F)F)c2)nc(N2CCCC2)n1

# Compound activity: PubChem, Vanderbilt University

# An excerpt, so the mix of outcomes need not match the whole.
